# Screening results (PubChem BioAssay)
# HSD17B inhib – blocks hydroxysteroid 17-beta dehydrogenase activity; actives 7.6% (n = 75,000); Q99714; recombinant HSD17B10, NADH fluorescence kinetic; many of its hits are not listed in these tables; Potency, µM (doses to about 57.1 µM), for the others: top-dose activity change, negative = inhibition, most hits filed as inhibitors; active = well fitted inhibition curve with a large enough effect; inconclusive = small, poorly fitted or top-dose-only effect; inactive = no such curve, though single readings can be large or run the other way;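 also: the protocol describes HADH2 (HSD17B10) and not the HSD17B4 of the title; nearly all actives have a fitted effect of over 70% in size; most hits overshoot -100% by far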
#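 Enzyme plus compound, 15 min room temperature; substrate mix added (NAD+ 1 mM, beta-hydroxybutyryl-CoA 90 uM final); plates read kinetically for NADH fluorescence. HADH2 was His-tagged, E. coli-derived, 20 nM.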
# * = called active by the depositor; ? = inconclusive; [ ] = another dose, or the depositor's remark. % is scaled to controls: 0 for no effect and ±100 for the full control effect; potency is read from the fitted curve at half-maximal effect.
# The opening two compounds, to show the layout:
SMILES,HSD17B inhib
Cc1nc2ccccn2c1/C(O)=C1\C(=O)C(=O)N(CCN2CCOCC2)C1c1ccncc1 (stereo unspecified),-1%
COc1ccc2cc(CCNC(=O)CC(C)(C)C)c(=O)[nH]c2c1,25µM*

# The list itself, from the start:
SMILES,HSD17B inhib
Cc1nc2ccccn2c1/C(O)=C1\C(=O)C(=O)N(CCN2CCOCC2)C1c1ccncc1 (stereo unspecified),-1%
COc1ccc2cc(CCNC(=O)CC(C)(C)C)c(=O)[nH]c2c1,25µM*
CCCCCc1c(C)nc(SCC(=O)O)[nH]c1=O,0%
CCCCOC(=O)c1[nH]c2c(c1C)C(=O)CC(c1cc(OC)c(OC)c(OC)c1)C2 (stereo unspecified),2%
CC(OC(=O)C1CCN(S(=O)(=O)c2ccccc2)CC1)C(=O)Nc1ncc(Cl)cc1Cl (stereo unspecified),-8%
N#CNC1=NCN(Cc2ccccc2)CN1,5%
CCOC(=O)Cc1csc(NC(=O)CCNS(=O)(=O)c2ccc3c(c2)CCC(=O)N3)n1,-8%
CCOC(=O)N1CCN(C(=O)CCNS(=O)(=O)c2cc(Br)cnc2N)CC1,?
CCCC(=O)N(C)c1nnc(-c2ccc(OC)cc2)s1,32µM*
O=C(O)c1ccccc1C(c1ccc(O)cc1)c1ccc(O)cc1,2%
CC(NC(=O)c1ccccc1NC(=O)c1ccco1)C(=O)O (stereo unspecified),-2%
Cc1nn(-c2ccccc2)c2sc(C(=O)OCN3C(=O)c4ccccc4C3=O)cc12,?
CCOC(=O)C1CCN(c2c(NCCCN(CC)Cc3ccccc3)c(=O)c2=O)CC1,-14%
COCc1nnc(NC(=O)c2ccco2)s1,-3%
COCC(=O)N1CCC2(CC1)CN(Cc1cc(C(F)(F)F)cc(C(F)(F)F)c1)C2,6%
O=C(O)c1ccc(-c2ccccc2Cl)o1,-1%
COC(=O)c1cccc(C#CC(NP(=O)(c2ccccc2)c2ccccc2)c2ccccc2)c1 (stereo unspecified),0%
O=c1cnc2cncnc2n1Cc1ccccc1,-1%
COC(=O)c1cccc(C23CC4(C2)[C@H](CN(C)[C@@H]4c2ccccc2)C3c2ccc(C(F)(F)F)cc2)c1 (stereo partly specified),-17%
Cc1ccc(C(=O)CSc2nnc(-c3ccccc3)n2-c2ccccc2)o1,0%
CCC1SC2=NC(C)=C(C(=O)OC)C(c3ccc(C(=O)OC)cc3)N2C1=O (stereo unspecified),8%
O=C(O)c1ccccc1COc1ccccc1Cl,-2%
Cc1ccc2cc3cc(C(=O)N(C)C4CCCCC4)oc3nc2c1,3%
O=C(Nc1ccc(N2C(=O)C3C4C=CC(C4)C3C2=O)cc1)Nc1cccnc1 (stereo unspecified),8%
CC(=O)NC(CCS(C)(=O)=O)C(=O)Nc1nc(C)cs1 (stereo unspecified),5%
CCOC(=O)c1c(NC(=O)c2cccs2)sc2c1CCN(C(=O)OCC)C2,?
COc1ccc(OC)c(-c2ccccc2/C=N/NS(=O)(=O)c2ccc(C)cc2)c1,-3%[11.4 µM]
CCCS(=O)(=O)c1c(S(=O)(=O)CCC)c2c(N)cccn2c1C(=O)c1ccc(F)cc1,5µM*
Cc1noc(C)c1S(=O)(=O)N1CCC(C(=O)N2CCN(C(=O)c3ccco3)CC2)CC1,3%
COc1ccccc1CNC(=O)C1CCCN(S(C)(=O)=O)C1 (stereo unspecified),2%
Nc1c(Br)cc(Br)c(N2CCCC2=O)c1Br,4%
CC(=O)Nc1ccc(S(=O)(=O)N2C3CCCC2CC(NC(=O)C2CCCCC2)C3)cc1 (stereo unspecified),6%
Cc1cc(=O)n2c(c1C#N)SC1CCCCC12O (stereo unspecified),14%
Cn1c(=O)c2c(SCC(=O)N3CCOCC3)nc(CC(C)(C)C)nc2n(C)c1=O,6%
COc1cc(-c2nnc(SCC#CCO)o2)cc(OC)c1OC,0%
COc1ccc(-c2noc(Cc3ccccc3OC)n2)cc1,-14%
COCCn1nnnc1C(c1ccc2ncccc2c1)N1CCN(c2ccccc2F)CC1 (stereo unspecified),2%
C[C@H](NC(=O)c1ccc(Cl)c(Cl)c1)c1ccc(-c2ccccc2)cc1,13%[11.4 µM]
N#C/C(=C/N1CCOCC1)c1ccccc1,1%
Cc1ccc(C(C(=O)NC2CCCCC2)N(C(=O)c2csnn2)C2CC2)o1 (stereo unspecified),4%
Cc1ccc(-c2nnn(CC(=O)N(Cc3ccco3)C(C(=O)NC(C)(C)C)c3cccs3)n2)o1 (stereo unspecified),-8%
CCCn1c(SCC(=O)Nc2ccccc2C(=O)OC)nc2c1c(=O)n(C)c(=O)n2C,8%
Cn1c(CNc2nc(-c3ccccc3)cs2)nnc1SCC(=O)N1CCc2ccccc21,-2%
O=C(c1ccccc1)N1CCn2c(nc3ccccc32)C1,2%
CN(C)Cc1c(O)ccc2oc(Cc3ccccc3)cc12,-23%
Cn1cccc1C(C(=O)NC1CCCCC1)N(C(=O)Cc1cccs1)c1ccc2c(c1)OCCO2 (stereo unspecified),3%
CCCCCC(=O)OC(CN1CCCCC1)CN1CCCC1=O (stereo unspecified),11%
CCOC(=O)Nc1cc(C)c(Cl)cc1OC,-1%
CC(=O)OC[C@@]1(O)C[C@]23CCC4c5ccoc5CC[C@@]4(C)C2CCC1C3 (stereo partly specified),-3%
CCN(CC)C(=O)c1sc2nc(-c3ccccn3)[nH]c(=O)c2c1C,32µM*
Cc1cc(Nc2ncc(Cl)cc2Cl)n[nH]1,-11%
COc1cccc(C2CC(c3cccc(Br)c3)n3nc(N)nc3N2)c1 (stereo unspecified),-1%
CCCCCC(=O)Nc1cccc(-c2nc3ncccc3o2)c1,25µM*
Cc1cc(C)nc(NC(=O)c2c(-c3ccccc3Cl)noc2C)n1,-4%
CCC1=NC(c2ccccc2Cl)N(O)C1(C)C (stereo unspecified),9%
CCC(=O)N(CCc1ccccc1C)Cc1cc2cc3c(cc2[nH]c1=O)OCO3,?
CC(C)(C)NC(=O)C(c1ccncc1)N(C(=O)c1csnn1)C1CC1 (stereo unspecified),16µM*
Cc1ccc(C2CC(=O)N3CN(c4ccc(Br)cc4)CSC3=C2C#N)o1 (stereo unspecified),13µM*
COC(=O)C1(C)C=CC2(CCCCC2)N1C(=O)c1ccccc1 (stereo unspecified),-5%
Cc1ccccc1NC(=O)C1CC(Cl)=CCC1C(=O)O (stereo unspecified),6%

# Reprinted at random: 5 entries already listed, in no set order.
SMILES,HSD17B inhib
Cc1ccc(C2CC(=O)N3CN(c4ccc(Br)cc4)CSC3=C2C#N)o1 (stereo unspecified),13µM*
Cc1ccc(-c2nnn(CC(=O)N(Cc3ccco3)C(C(=O)NC(C)(C)C)c3cccs3)n2)o1 (stereo unspecified),-8%
O=C(c1ccccc1)N1CCn2c(nc3ccccc32)C1,2%
CCC1=NC(c2ccccc2Cl)N(O)C1(C)C (stereo unspecified),9%
CCC(=O)N(CCc1ccccc1C)Cc1cc2cc3c(cc2[nH]c1=O)OCO3,?

# The listing continues:
SMILES,HSD17B inhib
O=C(CN1CCC(n2nnc3cc(C(F)(F)F)ccc32)CC1)Nc1ccc2c(c1)OCCO2,-3%
CC(=O)OC1CCC2(O)CC1(C)CCC1C2CC1(C)C (stereo unspecified),-5%
Oc1cccc(-c2nc3ccccc3s2)c1,-16%
CC(NC(=O)c1nn(C)c(=O)c2ccccc12)c1ccc(F)cc1 (stereo unspecified),0%
COc1cccc(C2=N/C(=C\N(C)C)C(=O)O2)c1,-10%
O=C(O)CCSc1nc2ccccc2s1,-2%
COCc1nnc(NC(=O)c2cccs2)s1,-3%
CCN(CC)CCN1C(=O)C(=O)/C(=C(/O)c2ccc(OCC(C)C)cc2)C1c1ccncc1 (stereo unspecified),0%
C/C=C/Cn1c(SC)nc2c1c(=O)[nH]c(=O)n2C,1%
Cc1cc(C)cc(N(C(=O)c2ccc3c(c2)OCO3)C2C=CS(=O)(=O)C2)c1 (stereo unspecified),6%
Cc1c(C(=O)NCCN2CCOCC2)oc2ccc(S(=O)(=O)N3CCCCCC3)cc12,2%
CC(C)NCC[C@@H](O)c1cc2ccccc2o1,13%[11.4 µM]
Cc1ccc(CNC(=O)C(OC(=O)c2ccco2)C(C)C)cc1 (stereo unspecified),5%
COc1cccc(NC(=O)COC(=O)c2ccco2)c1,11%
COc1ccccc1NC(=O)CSc1nnc(-c2ccccc2)o1,3%
NC(CSCSCC(N)C(=O)O)C(=O)O (stereo unspecified),0%
CCN1CCC(NC(=O)c2cc(OC)c(OC)cc2OC)CC1,-21%
CCn1c(SCC(=O)N2CCN(c3ccc(F)cc3)CC2)nc2ccccc2c1=O,-3%
COCCNC(=O)C(OC(=O)c1cccs1)c1ccccc1 (stereo unspecified),5%
O=C(CCCCCN1C(=O)c2ccccc2C1=O)NCCc1nc2ccccc2[nH]1,-8%

# Some of these compounds in order of length of the SMILES, largest number first:
SMILES,HSD17B inhib
Cc1cc(C)cc(N(C(=O)c2ccc3c(c2)OCO3)C2C=CS(=O)(=O)C2)c1 (stereo unspecified),6%
CCn1c(SCC(=O)N2CCN(c3ccc(F)cc3)CC2)nc2ccccc2c1=O,-3%
CCN1CCC(NC(=O)c2cc(OC)c(OC)cc2OC)CC1,-21%
COCCNC(=O)C(OC(=O)c1cccs1)c1ccccc1 (stereo unspecified),5%

# (more compounds)
SMILES,HSD17B inhib
O=C(Oc1cccnc1)c1cccc(Cl)c1,-12%
COC(=O)c1ccc(-c2nn(C)c(=O)c3ccccc23)cc1,3%
COc1cc(NC(=O)C2COc3ccccc3O2)c(OC)cc1Cl (stereo unspecified),-9%
CCOC(=O)[C@]1(C(NC(=O)OC)c2ccco2)CCCC1=O (stereo partly specified),-2%[11.4 µM]
CC(C)c1nc(SCC(=O)NCc2ccc3c(c2)OCO3)c2c(=O)n(C)c(=O)n(C)c2n1,8%
Cc1csc(NC(=O)CCS(=O)(=O)c2ccc(Br)cc2)n1,1%
Cc1ccc(-c2nnn(CC(=O)N(Cc3cccs3)C(C(=O)NC(C)(C)C)c3ccc(C)o3)n2)o1 (stereo unspecified),13%
OC(Cn1ccnc1)c1ccc(Cl)cc1Cl (stereo unspecified),7%
Cc1cc2nc(C)n3c4ccccc4nc3n2n1,7%
O=C(O)C1CCCCC1C(=O)NCc1cn2ccccc2n1 (stereo unspecified),32µM*
CON(C)c1nc(OCCNC(=O)OCc2ccc(Cl)cc2Cl)nc(N(C)C)n1,1%
NS(=O)(=O)c1cc2c(cc1Cl)=NC(CCC(=O)O)=NS=2(=O)O,13%[11.4 µM]
Cc1cc(Nc2ccc(N3CCC(C)CC3)cc2)n2ncnc2n1,0%
Cc1ccc(-n2c(Cc3cccn3C)nnc2SCC(=O)N2CCc3ccccc32)cc1,-10%
Cn1cccc1C(=O)N1CCC2(CC1)CN(C(=O)Nc1cccc(C#N)c1)C2,-4%
O=C(O)c1ccc(CO)o1,2%
O=C(Nc1ccc(F)cc1F)N1CCN(c2ncccn2)CC1,-6%
CCOc1ccc(N(CC(=O)Nc2nccs2)S(=O)(=O)c2c(C)noc2C)cc1,-9%
CCC(CCC(C)C1CCC2C3CC=C4CC(OC(C)=O)CC[C@@]4(C)C3CC[C@@]12C)C(C)C (stereo partly specified),3%
CCOc1ccccc1NC(=O)C1CCC(CNc2c(N3CCOCC3)c(=O)c2=O)CC1 (stereo unspecified),-4%
CCN(CCCNC(=O)COc1cc(=O)n(CC)c2ccccc12)Cc1ccccc1,2%
C=CCSc1nnc(C)n1-c1ccc(Cl)cc1,3%
CCCC[P+](CCCC)(CCCC)Cc1ccc(NC(=O)[C@@H](Cc2ccc3ccccc3c2)NC(=NC2CCCCC2)NC2CCCCC2)cc1,5%
O=C(NC1CCCCC1)N1CCc2[nH]c3ccccc3c2C1,107%[activator]
Cc1ccc(C)c(NC(=O)CS(=O)(=O)c2c[nH]c3ccccc23)c1,8%
COc1cccc(CN2C(=O)CCC2(C)C(=O)NC2CCCCC2)c1 (stereo unspecified),7%
COc1ccc(-c2nc(CSCC(=O)NCc3ccc4c(c3)OCO4)c(C)o2)cc1OC,-11%
COc1ccc(-n2nc(C(=O)NCC(=O)NCC3CCCO3)c3ccccc3c2=O)cc1 (stereo unspecified),-2%
CCC1CCCCN1C(=O)CSc1nc2c(cnn2-c2ccc(C)cc2)c(=O)[nH]1 (stereo unspecified),3%
COC(=O)c1ccc(NS(=O)(=O)c2ccc3c(c2)oc(=O)n3C)cc1,6%
Cc1cc(C)cc(NC(=O)CCNS(=O)(=O)c2ccc3c(c2)oc(=O)n3C)c1,2%
O=C(Cn1cnnn1)OCC(=O)c1ccc(Cl)s1,13µM*
O=C(NCc1ccccc1)N(Cc1cc2cc3c(cc2[nH]c1=O)OCCO3)CC1CCCO1 (stereo unspecified),25µM*
COc1ccc(OC)c(NC(=O)CCn2cccc2)c1,1%
CCOc1ccc(NC(=O)Nc2ccc3c(c2)N(C)C(=O)CS3)cc1,2%
OCC1N=C(c2ccccn2)OC1c1ccccc1 (stereo unspecified),13%
CCc1noc(C)c1C(=O)Nc1sc(C(=O)N(C)C)c(C)c1C(=O)OC,-3%
C/C=C/c1ccc(OCCN2C(=O)NC(C)(C)C2=O)c(OC)c1,3%
Brc1cccc(-c2nnc(SCc3ccon3)n2-c2ccccc2)c1,-11%
C[C@H](NC(=O)OC(C)(C)C)c1nnc(SCC(=O)c2ccc(Cl)cc2)o1,5%
Cn1c(Cn2c(=O)sc3ccccc32)nnc1SCc1cccnc1,6%
CCN(CC)c1ccc(NC(=O)c2ccc(Br)o2)cc1,-19%
CCN1C(=O)[C@H]2[C@H]3[C@H](O)[C@H](O)C/C(=N/NC(=O)OCc4ccccc4)[C@@H]3CC[C@@H]2C1=O,3%[11.4 µM]
Cc1sc(NC(=O)CSc2nnc(-c3ccc(F)cc3)o2)c(C#N)c1C,-3%
CCOC(=O)N1CCC(N2C(=O)c3ccc(C(=O)NCc4ccc(F)cc4)cc3C2=O)CC1,-18%

# This is a subset. The share of hits here may be higher or lower than overall.
